Screening results: PubChem BioAssay, National Center for Advancing Translational Sciences (NCATS)
CtBP-E1A inh = CtBP/E1A binding inhibition; AlphaScreen GST-E1A/His-CtBP binding, 1536-well; hits give low values; control for the full effect not named in the record; activity change, % (test concentration not listed); 340,000 compounds, 0.49% hits; AID 651724; in the data active means activity change below about -65%; inconclusive means about -30% to -65%; inactive means above about -30%; also: % is scaled to controls: 0 for no effect and ±100 for the full control effect
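GST-E1A and His-tagged CtBP (125 nM each as 5X stock) were preincubated with pin-transferred compound for 2 h at 37 °C in the dark, then glutathione donor and nickel acceptor beads were added for 1 h before AlphaScreen reading.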
Six1-Eya2 blk = blocks human Six1 binding to Eya2 | AID 651725 | activity change, % (concentration not given with the values) | 360,000 compounds, 0.56% hits | AlphaScreen GST-Six1/His-Eya2 binding, biochemical; hits give low values; control for the full effect not named in the record; in the data active = activity change below about -65%; inconclusive = about -30% to -65%; inactive = above about -30%; also: % is scaled to controls: 0 for no effect and ±100 for the full control effect
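Six1/Eya2 binding was read as AlphaScreen signal after compounds were pinned into GST-Six1 plus His-tagged Eya2 (5X stock 250/500 nM) in pH 8.0 Tris/NaCl/TCEP buffer, beads added, then incubated 1 h, 37 C, dark.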
D2 ag = agonists of human D2 dopamine receptor (beta-arrestin); activation, % (concentration not given with the values); P14416; 360,000 compounds, 0.084% hits; DiscoveRx PathHunter D2 beta-arrestin, luminescence, 90 min; 100% = 57 uM dopamine signal; in the data active = activation above about 40%; inconclusive = about 15% to 40%; inactive = below about 15%; also: the text of the record calls up to 30% inactive
Target sequence (P14416 whole entry, looked up): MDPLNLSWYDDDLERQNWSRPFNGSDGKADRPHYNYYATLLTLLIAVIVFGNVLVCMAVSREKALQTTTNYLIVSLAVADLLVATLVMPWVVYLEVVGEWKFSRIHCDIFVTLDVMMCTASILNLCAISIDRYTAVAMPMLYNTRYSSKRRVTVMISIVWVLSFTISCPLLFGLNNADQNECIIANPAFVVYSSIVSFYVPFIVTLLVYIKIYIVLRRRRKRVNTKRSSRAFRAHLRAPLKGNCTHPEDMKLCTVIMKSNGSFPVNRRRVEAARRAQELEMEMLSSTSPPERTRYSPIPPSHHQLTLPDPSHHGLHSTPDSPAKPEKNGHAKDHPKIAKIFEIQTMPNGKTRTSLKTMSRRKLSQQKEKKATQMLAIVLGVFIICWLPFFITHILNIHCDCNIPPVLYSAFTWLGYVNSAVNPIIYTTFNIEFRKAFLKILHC
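Agonist mode: compounds alone added to overnight-plated D2 PathHunter cells for 90 min at 37 C, with 57 uM final dopamine (EC100) defining full response. Beta-arrestin recruitment detected by chemiluminescent reagent, read after 1 h at ambient temperature.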
gsp antagonist = antagonists of gsp mutant (McCune-Albright syndrome). AID 624288. gsp-mutant cells, cAMP HTRF, 30 min; control for the full effect not named in the record. Potency, µM (doses to about 76.9 µM), without a hit: at the top dose activity change, negative = inhibition, most hits filed as inhibitors. 340,000 compounds, 0.4% hits; active = falling curve of any shape with a large fitted effect; inconclusive = falling curve, mostly with a smaller effect; inactive = flat or rising curve; cell line not stated here;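 also: intracellular cAMP measured with PDE inhibitor Ro 20-1724 present during compound exposure; potency is read from the fitted curve at half-maximal effect; % is scaled to controls: 0 for no effect and ±100 for the full control effect; nearly all actives have a fitted effect of over 65% in size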
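Cells, 2000/well, grown 16–24 h in DMEM 10% FBS with 0.5 mg/ml G418, then compounds plus […] (300 uM addition stock), 30 min at 37C. cAMP read by HTRF (cAMP-d2 and anti-cAMP antibody-K in lysis buffer) after 30 min RT.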
D2 PAM = human D2 receptor positive allosteric modulation; P14416; DiscoveRx D2 beta-arrestin cells, luminescence, 90 min; 100% = 57 uM dopamine signal; potentiation, % (concentration not given with the values); 360,000 compounds, 0.23% hits; active = potentiation of 50% or more; inconclusive = 30% to 50%; inactive = 30% or less;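 also: tested on top of an EC20 dose of dopamine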
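PathHunter D2 cells, attached overnight at 37 deg C, received compound in DMSO plus dopamine at EC20 (50 nM final) for 90 min at 37 deg C. Beta-arrestin recruitment was read as luminescence after 1 h with detection reagent at ambient temperature.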
gsp ag = activates gsp, the McCune-Albright syndrome mutation. gsp mutant cells, cAMP HTRF, 30 min; control for the full effect not named in the record. Potency, µM (doses to about 76.9 µM), for the others: at the highest dose activation (cAMP increase), hits mostly activators. 340,000 compounds, 0.13% hits. AID 624287; active = well fitted activation curve with a large enough effect; inconclusive = small, poorly fitted or top-dose-only effect, or another doubt; inactive = no such curve, though single readings can be large or run the other way; cell line not stated here;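 also: phosphodiesterase inhibitor Ro 20-1724 added with compounds to block cAMP breakdown; potency is read from the fitted curve at half-maximal effect; nearly all actives have a fitted effect of over 60% in size; about a fifth of the inactives were tested at one dose only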
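Cells stably selected in G418 were plated at 2000/well, grown 16-24 hr, then given compounds in DMSO with the PDE inhibitor […] (300 uM solution added) for 30 min at 37C; cAMP was read by HTRF.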
* hit, by the source's call; ? = inconclusive; / = not tested or not shown; [ ] = another dose, or the depositor's remark.

SMILES | CtBP-E1A inh | Six1-Eya2 blk | D2 ag | gsp antagonist | D2 PAM | gsp ag
O=C(CSc1nnc2scc(-c3ccccc3)n12)N1CCCc2ccccc21 | 3 | -1 | -2.1 | -21% | -4 | -6%
COc1ccccc1CNC(=O)CCS(=O)(=O)c1ccc2c(c1)CCN2C(C)=O | 5 | 0 | 0.7 | -3% | 2 | 7%
C=CCOC(=O)C1=C(C)NC(=O)NC1c1ccc(O)cc1 (configuration not stated) | / | 3 | -5.3 | 4% | -5 | -44%[inhibitor]
O=C(NNS(=O)(=O)c1ccc(F)cc1)c1ccccc1 | -17 | 12 | 6.0 | -3% | -5 | -31%[15.4 µM]
COc1ccc(Nc2ncnc3ccc([N+](=O)[O-])cc23)c(OC)c1 | -5 | 1 | 3.8 | -12% | -3 | 26%[15.4 µM]
Cc1csc(NC(=O)C(C)Oc2ccc(Br)cc2)n1 (configuration not stated) | -4 | -1 | -2.3 | -1% | 9 | -31%
Cc1ccccc1NS(=O)(=O)c1ccc(N2CCCC2=O)cc1 | 6 | 4 | 2.9 | 17% | -1 | -4%
Cc1ccc(C(=O)NNC(=O)Cn2ccc(C(F)(F)F)n2)o1 | -24 | 5 | -6.3 | 10% | 3 | -9%
C=CCn1c(-c2ccccc2)nc2nc3ccccc3nc21 | 5 | -5 | -2.9 | 1% | -20 | 14%
NNC(=O)c1ccc(COc2cccc3cccnc23)cc1 | -9 | -8 | 3.9 | -9% | -3 | -16%
C=CCNC(=O)Cn1nc(-c2ccccc2)ccc1=O | 7 | -1 | -2.3 | 7% | -9 | -19%
CN(C)S(=O)(=O)N(CC(=O)Nc1ccccc1F)c1ccccc1 | -2 | -2 | -2.6 | -6% | -8 | -1%
CCOC(=O)c1ccc(NC(=O)Cn2cnc3cc(C)c(C)cc32)cc1 | -2 | 11 | -0.8 | ? | -8 | -16%
CN(C)CCCN(C(=O)c1ccc(S(=O)(=O)N(C)C2CCCCC2)cc1)c1nc2ccc(F)cc2s1 | -21 | -20 | -6.6 | 9% | -27 | 17%
CSc1cccc(NC(=S)N2CCC(N(C)C3CCCCCC3)CC2)c1 | 0 | -10 | -2.3 | 3% | -14 | -1%[15.4 µM]
O=C(N/N=C/C(Cl)=C/c1ccccc1)c1ccccc1F | ? | 2 | 2.8 | -4% | -10 | -2%
COc1ccc(S(=O)(=O)NC(=O)C2(C)CCN2C(=O)C2(c3ccc(Cl)cc3)CCC2)cc1 (configuration not stated) | 3 | 1 | -4.7 | / | 0 | /
Cc1onc(-c2ccccc2)c1C(=O)NC(=S)Nc1sc2c(c1C#N)CCC(C)C2 (configuration not stated) | -8 | -17 | -0.9 | -12% | 1 | -11%
CCOC(=O)N1CCC(N(CCN(C)C)C(=S)Nc2ccccc2C)CC1 | 4 | 6 | -1.6 | 0% | -10 | 3%
COC(C/C=C\C(=O)[C@H](C)OCc1ccccc1)OC | 5 | 0 | -1.6 | 5% | -6 | /
O=C(Cc1ccccc1)Nc1ccc2oc(-c3ccncc3)nc2c1 | 1 | -11 | -0.9 | -4% | -5 | 25%
Cc1ccc(C#N)c(SCCN2CCCCC2)n1 | 0 | 4 | -2.0 | 6% | -21 | -20%
COc1ccccc1NC(=O)C1=C(C)NC(=O)NC1c1ccccc1F (configuration not stated) | 2 | -2 | -6.2 | 0% | -1 | ?
CCC(C)C1NC(=S)N(Cc2ccccc2)C1=O (configuration not stated) | -12 | 4 | -3.3 | 1% | -8 | -1%
CCCCC#Cc1ccc(C(=O)NNC(=O)Nc2cc(Cl)cc(Cl)c2)o1 | / | -5 | -6.6 | 2% | -3 | -5%
CC(=O)Nc1cc(-c2cccc(CO)c2)cn2c(-c3ccc(C(C)=O)cc3)cnc12 | -5 | -4 | 10 | / | 3 | /
CCCn1c(SCC(=O)Nc2cccc(Cl)c2Cl)n[nH]c1=O | 2 | 3 | -0.3 | -6% | -28 | -6%[15.4 µM]
COc1cc(NS(C)(=O)=O)ccc1Nc1c2ccccc2nc2ccccc12 | -22 | -24 | 5.7 | ? | 2 | /
CC(=O)N1CCC2(CC1)C(C#N)=C(N)Oc1n[nH]c(C(F)(F)F)c12 | 0 | -1 | -2.5 | 6% | 1 | -28%
O=C(Nc1cccc(F)c1)/C(=C/c1ccco1)NC(=O)c1ccco1 | -4 | -5 | -1.0 | -6% | -7 | ?
COc1ccc(-c2noc(CCC(=O)N3CCN(c4cccc(C)c4C)CC3)n2)cc1 | 0 | -1 | -0.2 | -6% | -5 | /
CCS(=O)(=O)c1nc(S(=O)(=O)c2ccc(Cl)cc2)c(N2CCc3ccccc3C2)s1 | 0 | -7 | -1.3 | 2% | -7 | ?
COc1ccc(/C=N/NC(=O)c2nc(-c3ccccc3)cc(-c3ccccc3)n2)cc1O | -23 | ? | ? | ? | -12 | -6%
COc1ccc(NS(=O)(=O)c2ccc(Br)s2)cc1OC | 12 | -1 | 0.1 | ? | -13 | -21%
CCOC(=O)N1CCC(NC(=O)C2CCCN(Cc3nc(-c4cccc(C)c4)oc3C)C2)CC1 (configuration not stated) | 1 | -1 | 1.3 | -14% | -14 | 4%
Cc1ccc(NC(=S)Nc2cccc3ccccc23)cc1F | -9 | -6 | -3.2 | 1% | -2 | 8%
COc1ccccc1NC(=O)Cn1nnc(-c2ccccc2NS(=O)(=O)c2ccccc2)n1 | -3 | -7 | 4.5 | -23% | -39 | -19%
C[C@@H]1CN([C@H](C)CO)C(=O)c2c(c3ccccc3n2C)-c2ccccc2CO[C@H]1CN(C)Cc1ccc2c(c1)OCCN2C | -1 | -4 | -4.2 | / | -2 | -1%
COc1ccc(C2CC(c3ccccc3)=NN2C(=O)COC(=O)C2CC2)cc1 (configuration not stated) | -3 | -1 | -5.2 | 1% | -7 | -16%
CCOc1ccc(OCC)c(S(=O)(=O)n2cnc(C)c2)c1 | -1 | 1 | 1.5 | 1% | -4 | -15%

Two records drawn at random from those above, as already listed:
SMILES | CtBP-E1A inh | Six1-Eya2 blk | D2 ag | gsp antagonist | D2 PAM | gsp ag
COc1cc(NS(C)(=O)=O)ccc1Nc1c2ccccc2nc2ccccc12 | -22 | -24 | 5.7 | ? | 2 | /
COc1ccccc1NC(=O)Cn1nnc(-c2ccccc2NS(=O)(=O)c2ccccc2)n1 | -3 | -7 | 4.5 | -23% | -39 | -19%

Other records
SMILES | CtBP-E1A inh | Six1-Eya2 blk | D2 ag | gsp antagonist | D2 PAM | gsp ag
Cc1cccc(CN2CCNC2=O)c1 | -3 | 0 | -1.9 | 11% | -14 | 5%
CCCC(=O)N1CCC1(C)C(=O)Nc1ccc(C)cc1 (configuration not stated) | -1 | 5 | -4.7 | / | -1 | /
Cc1cc(N/C=C/C(=O)c2ccccc2)ccc1Br | / | 5 | 0.2 | 0% | 11 | -4%
CCOc1ccccc1NC(=O)C1CCCN(S(=O)(=O)c2c(C)[nH]c(=O)[nH]c2=O)C1 (configuration not stated) | 2 | -8 | -2.1 | -9% | -6 | -8%
COc1cc(OC)c(N2CC(C(=O)Nc3cc(Cl)ccc3N3CCOCC3)CC2=O)cc1Cl (configuration not stated) | 1 | 0 | -3.8 | 25% | -12 | -9%
O=C(O)C1CC(=O)N(c2ccc(OCc3ccccc3)cc2)C1 (configuration not stated) | -1 | -1 | -1.2 | -3% | -3 | -1%
O=C1c2ccccc2C(=O)N1CCC#Cc1ccc2cc(C3(O)CCCCC3)oc(=O)c2c1 | 6 | 1 | 2.1 | -21% | 0 | -24%
CCOC(=O)C(=O)c1csc(NC(=O)CCSc2ccc(C)cc2)n1 | -2 | 4 | -6.0 | 7% | -4 | 7%
NC(=O)NC(=O)COC(=O)CCCc1c[nH]c2ccccc12 | -4 | -6 | -4.9 | 5% | 0 | 1%
COc1ccc(Br)cc1/C=N/NC(=O)c1cccc(S(=O)(=O)N2CCOCC2)c1 | ? | -12 | -1.2 | -17% | -3 | 15%
COc1ccc(Cl)cc1NC(=O)CN1CCN(C(=O)N2CCOCC2)CC1 | -5 | -2 | 0.6 | -4% | -20 | -18%
COc1cc2nc(NCCCN3CCN(C)CC3)n3nc(-c4ccccc4)nc3c2cc1OC | -19 | -24 | 0.2 | ? | -8 | -10%
O=C(c1cccc(C(F)(F)F)c1)N1CCOc2ccccc21 | 2 | 4 | -2.3 | 7% | -4 | 16%
CCCCNC(=O)C1CCN(C(=O)Nc2ccc(C)cc2)CC1 | 0 | 9 | 1.5 | 3% | -5 | -42%[inhibitor]
COc1ccc(-n2c(SCC(N)=O)nc3sc4c(c3c2=O)CCC4)cc1 | -17 | 0 | -0.6 | -39% | -4 | 0%[15.4 µM]
O=C1CSC2=NCN(c3ccccc3)CN12 | 0 | 7 | -2.3 | 9% | -7 | -5%
COC(=O)c1ccc(OCC2c3cc(OC)c(OC)cc3CCN2C(=O)C2CC2)cc1 (configuration not stated) | -11 | -6 | -0.6 | 9% | -9 | 1%
COc1cc(CN2CCCC(C(=O)Nc3cccc(-n4cccn4)c3)C2)ccc1F (configuration not stated) | -9 | -2 | 0.1 | -14% | -21 | -7%
CC(=O)N(CCCN(C)C)c1nc2ccc(C)cc2s1 | -6 | -1 | -4.8 | 7% | -17 | 1%[15.4 µM]
CN(C1CCCCC1)S(=O)(=O)c1ccc(NC(=O)c2ccc(Br)o2)cc1 | -10 | -12 | -0.5 | -7% | 1 | 6%
COc1ccc2c(c1)OC[C@H]1[C@@H]2N2C(=O)CNC(=O)[C@@]2(C)[C@H]1c1ccccc1 | 7 | 2 | -2.5 | 0% | -12 | -4%

10 entries from above, with values ahead of the structure:
| CtBP-E1A inh | Six1-Eya2 blk | D2 ag | gsp antagonist | D2 PAM | gsp ag | Molecule |
| --- | --- | --- | --- | --- | --- | --- |
| -3 | 0 | -1.9 | 11% | -14 | 5% | Cc1cccc(CN2CCNC2=O)c1 |
| -1 | 5 | -4.7 | / | -1 | / | CCCC(=O)N1CCC1(C)C(=O)Nc1ccc(C)cc1 (configuration not stated) |
| / | 5 | 0.2 | 0% | 11 | -4% | Cc1cc(N/C=C/C(=O)c2ccccc2)ccc1Br |
| 2 | -8 | -2.1 | -9% | -6 | -8% | CCOc1ccccc1NC(=O)C1CCCN(S(=O)(=O)c2c(C)[nH]c(=O)[nH]c2=O)C1 (configuration not stated) |
| 1 | 0 | -3.8 | 25% | -12 | -9% | COc1cc(OC)c(N2CC(C(=O)Nc3cc(Cl)ccc3N3CCOCC3)CC2=O)cc1Cl (configuration not stated) |
| -1 | -1 | -1.2 | -3% | -3 | -1% | O=C(O)C1CC(=O)N(c2ccc(OCc3ccccc3)cc2)C1 (configuration not stated) |
| 6 | 1 | 2.1 | -21% | 0 | -24% | O=C1c2ccccc2C(=O)N1CCC#Cc1ccc2cc(C3(O)CCCCC3)oc(=O)c2c1 |
| -2 | 4 | -6.0 | 7% | -4 | 7% | CCOC(=O)C(=O)c1csc(NC(=O)CCSc2ccc(C)cc2)n1 |
| -4 | -6 | -4.9 | 5% | 0 | 1% | NC(=O)NC(=O)COC(=O)CCCc1c[nH]c2ccccc12 |
| ? | -12 | -1.2 | -17% | -3 | 15% | COc1ccc(Br)cc1/C=N/NC(=O)c1cccc(S(=O)(=O)N2CCOCC2)c1 |
